Screening data from PubChem BioAssay.
Menin MLL FP FL: displaces fluorescein MLL peptide from human menin. Fluorescence polarization, fluorescein-MLL peptide displacement from menin. 290,000 tested, under 10 active. FP activity change, % at 61.4 µM; inconclusive = falling polarisation curve, or a change in total fluorescence; inactive = total fluorescence flat and polarisation flat or rising; no compound was filed as active; the % refers to the polarisation; negative = inhibition;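 also: % of control where 0% means no effect; inhibitors lower the polarisation; unlabelled MLL peptide was the positive control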
TRPV1 PAM: potentiators of human vanilloid receptor 1 (TRPV1); TRPV1-expressing cells, Fluo-8 calcium influx, capsaicin EC20 potentiation; host cell line not named in the record; control for the full effect not named in the record; hit rate 0.02% among 320,000; Q8NER1; potentiation, % at 8.33 µM; active means potentiation above 80%; inconclusive means 30% to 80%; inactive means below 30%; also: 0% is about no effect
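Fluo-8 calcium influx in TRPV1-expressing cells, kinetic read (ex 480/em 520 nm). Compound added and read 3 min for agonist activity, followed by capsaicin at EC20 final and 2 min further read for enhancement.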
gsp agonist: activates gsp, the McCune-Albright syndrome mutation. gsp mutant cells, cAMP HTRF, 30 min; control for the full effect not named in the record. Potency, µM (titrated, usually from 76.9 µM), inactives show top-dose activation (cAMP increase), usual class: activators. hit rate 0.13% among 340,000; active = well fitted activation curve with a large enough effect; inconclusive = small, poorly fitted or top-dose-only effect, or another doubt; inactive = no such curve, though single readings can be large or run the other way; cell line not stated here;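 also: phosphodiesterase inhibitor Ro 20-1724 added with compounds to block cAMP breakdown; potency is read from the fitted curve at half-maximal effect; nearly all actives have a fitted effect of over 60% in size; about a fifth of the inactives were tested at one dose only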
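Cells in DMEM/10% FBS with G418 were pretreated with compounds in DMSO plus […] (300 uM stock) for 30 min at 37C. cAMP was measured by HTRF (cAMP-d2 plus anti-cAMP antibody-K) after 30 min at room temperature.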
gsp antagonist: gsp mutant antagonism | gsp-mutant cells, cAMP HTRF, 30 min; control for the full effect not named in the record | hit rate 0.4% among 340,000 | Potency, µM (highest dose often 76.9 µM), without a hit: at the highest dose activity change, negative = inhibition, usual class: inhibitors; active = falling curve of any shape with a large fitted effect; inconclusive = falling curve, mostly with a smaller effect; inactive = flat or rising curve; cell line not stated here;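 also: intracellular cAMP measured with PDE inhibitor Ro 20-1724 present during compound exposure; potency is read from the fitted curve at half-maximal effect; % is scaled to controls: 0 for no effect and ±100 for the full control effect; nearly all actives have a fitted effect of over 65% in size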
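Cells in G418 medium, seeded 16-24 h, 37C; buffer exchange to DPBS + 1 mM CaCl2, 0.5 mM MgCl2, 0.05% BSA; cpds in DMSO + […] (300 uM stock), 30 min 37C; HTRF cAMP detection.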
CtBP-E1A blk: CtBP/E1A binding inhibition; AlphaScreen GST-E1A/His-CtBP binding, 1536-well; stronger effect = lower value; control for the full effect not named in the record; activity change, % (concentration not given with the values); hit rate 0.49% among 340,000; in the data active means activity change below about -65%; inconclusive means about -30% to -65%; inactive means above about -30%; also: % is scaled to controls: 0 for no effect and ±100 for the full control effect
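In 5 uL wells, 23 nL compound meets equimolar GST-E1A and His-CtBP (5X stock 125 nM each) for 2 h, 37 °C. Beads (5X, 50 ug/mL) then 1 h, 37 °C, dark.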
Sfp PPTase inh: blocks B. subtilis Sfp PPTase activity; Potency, µM, for the others: max response, negative = inhibition, hits mostly inhibitors; Biochemical Sfp PPTase activity, qHTS; AID 1490; Q9F4F7; hit rate 3.5% among 310,000; active = well fitted inhibition curve with a large enough effect; inconclusive = small, poorly fitted or top-dose-only effect, or another doubt; inactive = no such curve, though single readings can be large or run the other way;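 also: the enzyme is Sfp with the accession as filed and its product quenches rhodamine fluorescence; potency is read from the fitted curve at half-maximal effect; 0% = enzyme reaction without inhibitor and -100% = no enzyme wells; top concentration of the series not given in the record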
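Compounds were incubated with enzyme (final 15 nM) for 15 min at room temperature before substrate addition started the reaction. Fluorescence at 525 nm excitation, 598 nm emission was recorded immediately and after 30 minutes.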
ClpP mod: qHTS Assay for Activators of ClpP. ATP-dependent Clp protease proteolytic subunit (Bacillus subtilis (strain 168)), P80244. purified B. subtilis ClpP, FRET peptide cleavage, 20 min. Potency, µM (series often up to 57.5 µM), inactives show at the top dose activity change, negative = active. hit rate 1.9% among 340,000. AID 651965, 2013; active = well fitted falling curve with a large enough effect; inconclusive = small, poorly fitted or top-dose-only effect; inactive = no such curve, though single readings can be large or run the other way; also: potency is read from the fitted curve at half-maximal effect; the source files actives as falling curves though it sought activators and does not explain the sign; nearly all actives have a fitted effect of over 65% in size; many hits overshoot -100%
Target sequence (P80244 whole entry, looked up): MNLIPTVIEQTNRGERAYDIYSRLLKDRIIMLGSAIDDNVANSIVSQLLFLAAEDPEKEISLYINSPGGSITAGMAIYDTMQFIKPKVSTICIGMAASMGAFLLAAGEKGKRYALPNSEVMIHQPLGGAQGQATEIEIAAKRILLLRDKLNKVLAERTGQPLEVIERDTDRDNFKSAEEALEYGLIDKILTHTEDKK
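FRET quenching reversal measured ClpP activation: 10 microg/mL B. subtilis ClpP at pH 8 with the FRET-FV decapeptide, read at 430 nm after 320 nm excitation. The 20-min minus 0-min signal was scaled between DMSO/no-enzyme wells and ADEP (5.8 microM final).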
* = called active by the depositor; ? = inconclusive; · = no result given; & = joins results of further samples; [ ] = remark or other dose.

item	canonical_smiles	gsp antagonist	CtBP-E1A blk	Sfp PPTase inh	Menin MLL FP FL
1	COC(=O)[C@@]12CCCCN1[C@H](c1ccc(-c3ccc(C(C)=O)cc3)c(OC)c1)[C@@H]1C(=O)N(C)C(=O)[C@@H]12	-21%	-5	·	·
2	CCS(=O)(=O)Nc1ccc(-c2nc3cccnc3s2)cc1	4%	?	15%	-0.2
3	Cc1ccc(C(=O)O/N=C\c2ccc(N3CCOCC3)c([N+](=O)[O-])c2)cc1	-8%	1	9%	-3.3
4	COc1cccc(N=Nc2ccc(O)c3ncccc23)c1	4%	-96*	12%	0.2
5	O=C1CCN(Cc2ccc(Br)cc2)CCN1[C@H](CO)c1ccccc1	8%	2	9%	-1.3
6	Cc1cccc2nc(CSc3nc4cc([N+](=O)[O-])ccc4s3)cn12	-8%	3	6%	0.4
7	O=c1c(-c2nc3ccccc3s2)cccn1Cc1ccc(Cl)cc1	-2%	51	?	4.5
8	OC(COC(c1ccc(Cl)cc1)c1ccc(Cl)cc1)CN1CCCC1 (centres undefined)	16%	-21	4%	2.4
9	CN(Cc1ccc(F)cc1)C(=O)CNC(=O)c1ccc2c(c1)OCO2	-11%	0	·	·
10	CSc1nc2ccccc2n1CC(=O)Nc1c(C)cccc1C	-8%	6	-8%	1.9

item	ClpP mod	TRPV1 PAM	gsp agonist
1	-1.4%	15	-28%
2	3.3%	8	?
3	1.0%	-16	-6%
4	·	5	-14%[15.4 µM]
5	0.1%&2.2%	-5	·
6	0.6%	5	3%[15.4 µM]
7	5.4%	·	15%
8	-2.7%	22	-40%[inhibitor]
9	0.3%	1	-9%[15.4 µM]
10	1.8%	-22	-6%

Sorted by value in Menin MLL FP FL (falling): 7 from the list above.
nr | SMILES | Menin MLL FP FL
7 | O=c1c(-c2nc3ccccc3s2)cccn1Cc1ccc(Cl)cc1 | 4.5
8 | OC(COC(c1ccc(Cl)cc1)c1ccc(Cl)cc1)CN1CCCC1 (centres undefined) | 2.4
10 | CSc1nc2ccccc2n1CC(=O)Nc1c(C)cccc1C | 1.9
4 | COc1cccc(N=Nc2ccc(O)c3ncccc23)c1 | 0.2
2 | CCS(=O)(=O)Nc1ccc(-c2nc3cccnc3s2)cc1 | -0.2
5 | O=C1CCN(Cc2ccc(Br)cc2)CCN1[C@H](CO)c1ccccc1 | -1.3
3 | Cc1ccc(C(=O)O/N=C\c2ccc(N3CCOCC3)c([N+](=O)[O-])c2)cc1 | -3.3

(next part)
item	canonical_smiles	gsp antagonist	CtBP-E1A blk	Sfp PPTase inh	Menin MLL FP FL
11	COc1ccc(CCNC(=O)c2ccc3ccccc3n2)cc1	-13%	-3	-8%	1.2
12	O=C(COc1cccc(Cl)c1)NCC(c1cccs1)N1CCOCC1 (centres undefined)	2%	5	·	·
13	Cc1nc(CCNS(=O)(=O)c2cccnc2)cs1	10%	5	14%	1.1
14	COc1cc(C(CCN2CCOCC2)c2c(OC)cc(OC)c3c2OC(=O)CC3c2ccc(N(C)C)cc2)cc(OC)c1OC (centres undefined)	-18%	?	-5%&-6%	-0.3&0.0
15	Cc1ccc(-c2nc3nc4ccccc4nc3n2Cc2ccco2)cc1	-8%	2	?	3.6
16	COc1nc(/C(N)=N/O)nc(N2CCCCC2)n1	14%	-4	79µM*	4.4
17	CC(C)Oc1ccc(C(=O)NCC(=O)N2CCN(S(=O)(=O)/C=C/c3ccccc3)CC2)cc1	-17%	-18	·	·
18	COc1ccc(S(=O)(=O)NCCCN2CCOCC2)c2ccccc12	10%	-5	13%	0.1
19	CCOC(=O)C1C(=O)CC(C)(O)C(C(=O)OCC)C1c1ccccc1 (centres undefined)	-1%	1	13%	-0.6
20	Cc1ccc(NC(=O)Cc2n[nH]c(=O)c3ccccc23)cc1S(=O)(=O)N1CCCCCC1	-11%	1	·	·

item	ClpP mod	TRPV1 PAM	gsp agonist
11	·	-12	?
12	1.2%	-35	5%
13	0.0%	2	-18%
14	-0.3%	-10	·
15	?	-4	20%
16	-1.2%	-3	8%
17	-2.4%	-11	-25%
18	-7.5%	-3	11%
19	1.0%	10	-28%
20	0.3%	-2	-3%

Of the compounds above, these have four or more nitrogen atoms:
item	canonical_smiles	gsp antagonist	CtBP-E1A blk	Sfp PPTase inh	Menin MLL FP FL
6	Cc1cccc2nc(CSc3nc4cc([N+](=O)[O-])ccc4s3)cn12	-8%	3	6%	0.4
15	Cc1ccc(-c2nc3nc4ccccc4nc3n2Cc2ccco2)cc1	-8%	2	?	3.6
16	COc1nc(/C(N)=N/O)nc(N2CCCCC2)n1	14%	-4	79µM*	4.4
20	Cc1ccc(NC(=O)Cc2n[nH]c(=O)c3ccccc23)cc1S(=O)(=O)N1CCCCCC1	-11%	1	·	·

item	ClpP mod	TRPV1 PAM	gsp agonist
6	0.6%	5	3%[15.4 µM]
15	?	-4	20%
16	-1.2%	-3	8%
20	0.3%	-2	-3%

(cont.)
item	canonical_smiles	gsp antagonist	CtBP-E1A blk	Sfp PPTase inh	Menin MLL FP FL
21	Cn1cccc1-c1cc(C(=O)N2CCc3c([nH]c4ccccc34)C2c2ccccn2)[nH]n1 (centres undefined)	?	·	?	-0.8
22	NC(=O)c1ncn([C@@H]2O[C@H](CN=C3NS(=O)(=O)c4ccccc43)[C@@H](O)[C@H]2O)n1	10%	2	·	·
23	COc1cccc(NC(=O)c2cc3ccccc3oc2=O)c1	7%	·	15%	-0.8
24	CCC(C(=O)NC1CCCC1)N(Cc1ccc2c(c1)OCO2)C(=O)c1snc(C(N)=O)c1N (centres undefined)	?	4	7%	0.5
25	CN1CCC(N(C)S(=O)(=O)c2ccc(NC(=O)Cc3ccc(F)cc3)cc2)CC1	1%	-5	·	·
26	O=C(c1ccco1)N1CCN(c2ccc([N+](=O)[O-])cc2F)CC1	-8%	0	-4%	·
27	CCN1CCCc2cc(CN(CCN3CCOCC3)C(=S)Nc3ccc(OC)c(Cl)c3)ccc21	-3%	·	-2%	-8.6
28	COc1ccccc1NS(=O)(=O)c1cc(NC(=O)c2sc3cc(Cl)ccc3c2Cl)ccc1C	5%	·	5%	3.9
29	O=C(COc1ccc2ccccc2c1)NNC(=O)Cc1cccc2ccccc12	-4%	2	11%	6.0
30	CC1=NN(/C(=N\c2nnc(C)s2)Nc2ccc(C(C)(C)C)cc2)[C@H](c2ccc(C)cc2)S1	-9%	-5	-9%	0.8
31	CCOC(=O)c1sc2nc(C)cc(C)c2c1N	4%	-15	-8%	1.4
32	Cc1ccccc1COC(=O)c1nn(-c2ccccc2)nc1N	-4%	9	-6%	1.4

item	ClpP mod	TRPV1 PAM	gsp agonist
21	0.5%	5	-14%
22	0.3%	·	·
23	0.9%	-8	3%
24	-12%	-6	-94%[inhibitor]
25	-0.1%	0	-1%
26	2.8%	8	?
27	-1.4%	?	2%
28	-12%	16	16%
29	-1.4%	9	0%
30	2.1%	-5	1%
31	28µM*	8	16%
32	4.5%	17	4%[15.4 µM]

Rows were taken by chance; about 5.3% have a hit in one of these screens.
